# PrP UTR inh = inhibition of PrP 5' UTR reporter expression | cell-based PrP 5' UTR mRNA reporter, plate reader | inhibition, % (concentration not given with the values) | hit rate 0.35% among 340,000 | AID 488862;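 active = every replicate at 50% or more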;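 note: 0 = median of the neutral control wells; tested in H4 reporter cells; numbers are from one replicate; inactives centre near -14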
# BJeLR viability = kills HRASV12-expressing BJeLR cells | BJeLR (HRASV12) viability, CellTiter-Glo ATP luminescence, 48 h; reference of the scale not given here | inhibition, % (concentration not given with the values) | hit rate 0.17% among 300,000 | AID 1554;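 active = replicate mean above 50%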;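 note: 50 nL library stock added to about 25 µL; numbers are from one replicate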
# Autofluor counter = counter-screen for toxin protease inhibitors: compound fluorescence; compound autofluorescence counterscreen, microsphere flow cytometry; stronger effect = higher value; hit rate 3.1% among 360,000; fluorescence intensity (no concentration beside the values);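 active = at least 3 SD above the mean of all compounds, about 16000 in these data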;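 note: 100 nL of 1 mM stock went into each well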
# Sa RN4220 lethal = S. aureus RN4220 growth inhibition; OD600, 16 h; inhibition, % (concentration not given with the values); hit rate 0.33% among 330,000;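 active = z-score of -3 or lower and OD600 up to 0.18 on both plates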;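 note: plate controls were untreated cells for no effect and reference antibiotic for full effect; stock transfer was 100 nL into about 80 µL; one replicate is shown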
# ugtP null kill = growth inhibition of S. aureus ugtP deletion strain; S. aureus RN4220 ugtP deletion, OD600 growth, 16 h; some inactives read as strong as hits; growth inhibition, % (no concentration beside the values); hit rate 0.54% among 330,000;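 active = z-score under -3 and OD600 up to 0.15 on both plates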;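 note: plate controls were untreated wells for no effect and antibiotic for full effect; wells of about 80 µL received 100 nL stock; the first replicate is given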
# Mtb hypoxia rep = inhibitors of hypoxia-regulated fluorescent reporter in Mycobacterium tuberculosis; M. tuberculosis hypoxia-regulated fluorescent reporter, fluorescence; fluorescence inhibition, % (test concentration not listed); hit rate 0.1% among 300,000;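 active = 35 to 45% if threefold the growth effect, above 45% if 1.5-fold the growth effect; inactive = the rest, general growth blockers included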;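 note: wells of about 50 µL received 100 nL stock; 0% = vehicle wells and 100% = reference inhibitor wells; whole bacteria with a GFP reporter of the hypoxia response; strong numbers were not always called active; many hits fall short of the cut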
# Mtb hypoxia rep growth = second read-out of Mtb hypoxia rep, no call of its own (marks repeat the call); growth inhibition, %; measured here: M. tuberculosis growth (absorbance);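 0% = vehicle and 100% = reference antibiotic; read after six days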
# * = called active by the depositor; nt = not tested or not shown.
SMILES,PrP UTR inh,BJeLR viability,Autofluor counter,Sa RN4220 lethal,ugtP null kill,Mtb hypoxia rep,Mtb hypoxia rep growth
CC(=O)Nc1ccc(S(=O)(=O)N(C)CC(=O)N/N=C/c2ccncc2)cc1,-4,-1,4442,nt,nt,nt,nt
O=C(CCc1ccc(Oc2cc([N+](=O)[O-])cc([N+](=O)[O-])c2)cc1)N1CCCCCC1,-13,1,1941,1.1,8,-5,3
CC1CN(C(=O)c2ccc(NS(=O)(=O)c3ccc(F)cc3)cc2)CC(C)O1 (stereo unspecified),-9,-10,6670,1.9,11,14,-1
COc1c(F)cc2[nH]c3c(c2c1F)CCNC3=O,-2,-2,3529,10,0,12,8
CC(C)(C)OC(=O)[C@H](Cc1ccccc1)NC(=O)c1[nH]cnc1C(=O)Nc1cccc(Cl)c1,-14,-4,4769,nt,nt,nt,nt
Cc1cc(-c2ccccc2)nc(N(C)NC(=O)C2CC2)c1S(C)(=O)=O,-10,-1,2487,3.4,0,1,6
CCOc1ccc(CN(C)CC(=O)Nc2ccc(N3CCOCC3)cc2)cc1OC,-25,4,2095,2.9,1,12,0
O=C(NC(=S)Nc1cc(S(=O)(=O)N2CCOCC2)ccc1N1CCOCC1)c1ccco1,-81,-1,4427,9.2,2,12,-4
CCn1c(C(=O)N2CCCC(C(=O)NCCCc3ccccc3)C2)cc2sccc21 (stereo unspecified),-17,1,13041,6.9,2,4,7
Cc1ccc2nc(-c3ccc(NC(=O)COC(=O)c4ccc(=O)[nH]c4)cc3)sc2c1,-63,-6,2930,-4.9,-1,-7,-4
COc1ccc(NC(=O)c2coc3ccccc23)cc1OC,-108,9,9402,4.9,-12,3,14
CCOC(=O)C(O)(c1ccc(NC(=O)NC)cc1)C(F)(F)F (stereo unspecified),nt,10,nt,5.7,8,4,2
CC(=O)C1C(=O)NC23CCCCC2C1c1ccccc1O3 (stereo unspecified),-24,-2,7692,1.1,-4,1,-9
O=C(NC12CC3CC(CC(C3)C1)C2)N1CCN(C(=O)c2ccco2)CC1,-15,0,2508,-1.6,5,3,5
Cc1ccc(NC(=O)c2sc(N)nc2-c2ccc([N+](=O)[O-])cc2)cc1C,-16,0,4250,0.9,8,19,1
CCOC(=O)c1c(-c2ccccc2)csc1/N=C/C1C(=O)CCCC1=O,-14,-2,2676,nt,nt,nt,nt
COCCNC(=O)CN(c1ccccc1OC)S(C)(=O)=O,10,-1,7009,3.9,2,-8,-5
Clc1ccc(/C(Cc2nc3ccccc3[nH]2)=N\Nc2ccccc2)cc1,-37,-3,2582,nt,nt,nt,nt
O=C(Oc1ccc([N+](=O)[O-])cc1)c1cc(-c2ccccc2)nc2ccccc12,1,12,3702,-3.4,14,nt,nt
O=C(NCC1COc2ccccc2O1)c1cccc(S(=O)(=O)N2CCCCC2)c1 (stereo unspecified),1,nt,3621,0.2,-2,1,0
CCCC(C)NCC(=O)Nc1ccccc1-c1ccccc1 (stereo unspecified),-1,-4,10182,3.2,-5,12,6
O=C(COC(=O)c1cccc(-n2cnnn2)c1)c1ccccc1,-5,1,5029,2.1,0,-4,-1
O=C1N(O)C2(C=CCCC2)/C(=N\O)C12CCCCC2 (stereo unspecified),-2,6,4445,nt,nt,nt,nt
CCN(CC)C(=O)[C@H]1C[C@H](CC(=O)NCCc2ccccn2)C(=O)N2CCc3c([nH]c4cc(-c5ccco5)ccc34)[C@]12C,-12,nt,2970,0.3,6,-2,3
Cn1c2ccccc2n2c(=O)c(=O)n(CC(=O)c3ccc(F)cc3)nc12,-9,-4,8716,-1.5,-9,-4,-3
COc1ccc(N2CCN(C(=O)c3cccc(Br)c3)CC2)c([N+](=O)[O-])c1,-21,5,4318,15,13,18,10
CC(C)C[C@H](NC(=O)c1[nH]cnc1C(=O)Nc1ccc(CNC(=O)OC(C)(C)C)cc1)C(=O)OC(C)(C)C,-12,2,3969,nt,nt,nt,nt
CC(=O)c1cccc(CN2CCN(C(C)C)C(CCO)C2)c1 (stereo unspecified),-22,4,2515,2.4,13,-1,-3
CN(CC(=O)Nc1ccc(F)cc1)C(=O)C1Cc2ccccc2CN1S(C)(=O)=O (stereo unspecified),-9,nt,5376,2.8,5,-5,-3
NC(=O)COc1ccc(-n2cnnn2)cc1,-24,4,2625,0.7,-4,-2,2
CC(Nc1n[nH]c(=O)[nH]c1=O)C(=O)NN=Cc1ccccc1 (stereo unspecified),nt,nt,nt,4.5,-1,12,8
O=P(CCNCc1ccco1)(c1ccccc1)c1ccccc1,-29,-3,3009,-8.4,14,nt,nt
CC(C)C(=O)Nc1nnc(CCc2nnc(NC(=O)C(C)C)s2)s1,2,-1,3501,3.4,8,nt,nt
O=Cc1cn(CCOc2ccccc2)c2ccccc12,-12,-12,nt,0.4,2,15,6
O=C(CSc1n[nH]c(-c2cccnc2)n1)Nc1ccccc1,-12,-15,4578,3.7,-13,nt,nt
COc1ccc(N2CCN(C(=O)c3cccc(NC(=O)c4ccco4)c3)CC2)cc1,-8,-2,6043,-4.4,14,8,10
Cc1ccc(-c2n[nH]c(=S)n2/N=C/c2c(C)[nH]n(-c3ccccc3)c2=O)cc1,-23,-6,4592,nt,nt,nt,nt
CCCN(CCC)C(=O)Cn1c(=O)n(CCCCC(=O)NC2CCCC2)c(=O)c2ccccc21,-13,1,5756,3.3,-4,nt,nt
COc1ccc(CNCc2c(C(=O)N(C)C)nc3ccc(Cl)cn23)c(OC)c1,-26,4,2229,1.0,3,2,7
CCOc1ccc(Nc2ncnc(N)n2)cc1,-13,8,10420,4.5,9,1,1
Cc1cccc2cc(CN(Cc3ccc(F)cc3)C(=O)C(F)(F)F)c3nnnn3c12,-17,-6,3699,-0.6,-3,-1,1
COCCn1c(C)cc(C(=O)COC(=O)c2ccc(NC(=O)CC#N)cc2)c1C,-33,1,2975,-3.1,-9,nt,nt
Cc1cc(NC(=O)OC(C)C)ccc1-c1ccc(NC(=O)OC(C)C)cc1C,7,4,2991,nt,nt,nt,nt
COc1cccc(CN(C(=O)c2cc3ccccc3oc2=O)C2CC2)c1,-14,3,5457,-1.9,-9,-3,4
Fc1ccc(C(c2nnnn2C2CCCC2)N(Cc2ccco2)CC2CCCO2)cc1 (stereo unspecified),-15,9,3427,4.7,5,12,9
COc1ccc(Cc2nn3c(Cn4nnc5ccccc54)nnc3s2)cc1,-7,4,3659,0.7,2,-10,-3
Cn1c(N)nc2nc[nH]c2c1=S,-26,nt,3590,5.2,12,9,6
Nc1cccc2c1Cc1cc([N+](=O)[O-])ccc1-2,-26,nt,3410,2.7,0,6,2
Cc1ccc(C)c(S(=O)(=O)Nc2ccccc2C(=O)Nc2ccc(S(=O)(=O)Nc3ncccn3)cc2)c1,-17,5,2063,2.9,6,7,2
CCC(NC(=O)/C(=C\c1ccc2c(c1)OCO2)NC(C)=O)C(=O)O (stereo unspecified),-10,9,2227,nt,nt,nt,nt
COc1cccc(NC(=O)CCS(=O)(=O)c2cccs2)c1,-35,2,4236,12,19,nt,nt
Cc1ccc(N2CC(C(=O)N3CCC(C(=O)Nc4ccc(Br)cc4)CC3)CC2=O)cc1 (stereo unspecified),-2,5,5888,-1.1,2,0,3
CC(Cc1nnn(-c2cc(C)on2)n1)=NO,nt,nt,nt,2.7,13,2,-1
COc1cc(C)ccc1S(=O)(=O)N1CCN(C23CC4CC(CC(C4)C2)C3)CC1,-3,-3,10109,7.0,15,-3,7
Cc1cccc(C(=O)N2CCN(CCNC(=O)C(=O)Nc3ccc(F)cc3)CC2)c1,-4,-3,3095,nt,nt,nt,nt
CCN(CC)C(=O)CC(c1ccc(N(C)C)cc1)c1c(O)cc(OC)cc1OC (stereo unspecified),-21,-9,3120,7.3,1,21,10
CCC(C)N1C(=O)CCC1C(=O)NCCc1ccc(Cl)cc1 (stereo unspecified),nt,2,3485,4.4,5,-5,5
CCS(=O)(=O)c1ccc2oc(SCC(=O)NCCc3ccc(F)cc3)nc2c1,-17,-11,3337,9.0,1,2,6
COc1ccccc1N1CCN(CC(C)N(C(=O)C2CCCCC2)c2ccccn2)CC1 (stereo unspecified),-4,1,3273,6.1,8,1,-6
O=C(Nc1ccccc1)N1CCc2ccccc21,-103,9,3179,5.0,5,18,10
# Next part.
SMILES,PrP UTR inh,BJeLR viability,Autofluor counter,Sa RN4220 lethal,ugtP null kill,Mtb hypoxia rep,Mtb hypoxia rep growth
COc1ccc(C2=C(C)CC(C)(C)NC2=O)cc1OC,-9,-1,3302,3.1,1,8,16
COc1ccc(NC(=O)COC(=O)CCCc2c[nH]c3ccccc23)cc1,-34,4,10725,0.8,8,18,5
CSCCC1NC(=O)N(CC(=O)Nc2c(Cl)cc(Cl)cc2Cl)C1=O (stereo unspecified),-2,-13,3463,9.9,6,8,3
Cc1ccccc1N(CC(=O)NCCSC1CCCCC1)S(=O)(=O)c1ccccc1,3,-1,11139,2.4,-15,2,6
O=C(Cn1c(NCCO)nc2ccccc21)c1ccc(Cl)cc1Cl,-3,-3,3883,1.8,7,6,10
Cc1ccsc1C(=O)NN=Cc1ccc([N+](=O)[O-])cc1,nt,nt,nt,1.8,4,4,7
Cc1ccccc1OCc1n[nH]c(=S)n1-c1ccccc1,-7,11,3028,5.2,2,-3,6
CC(C)n1c(N=Cc2ccccc2O)nc2ccccc21,nt,nt,nt,0.1,-1,-1,-1
CCCCCC(=O)Nc1cccc(C2=NOC3(C2)CC(C(N)=O)N(C(=O)CC(c2ccccc2)c2ccccc2)C3)c1 (stereo unspecified),nt,nt,nt,-4.3,10,12,8
Cc1nnc(SCC(=O)c2cc(C)n(-c3c(C)n(C)n(-c4ccccc4)c3=O)c2C)s1,-26,2,7306,1.1,-2,-1,-7
COc1ccc(OC(C)c2nnc(N)s2)cc1 (stereo unspecified),-17,nt,4320,10,13,17,9
CCC1CCCCN1CC(=O)c1c(C)[nH]c2cc(C)ccc12 (stereo unspecified),-17,1,4964,2.0,-2,8,-4
N#CC1=C(SCC(=O)c2cc3ccccc3oc2=O)NC(=O)C(C#N)C12CCCC2 (stereo unspecified),-4,-5,4921,-3.6,8,nt,nt

# Compounds from the list above containing fluorine:
SMILES,PrP UTR inh,BJeLR viability,Autofluor counter,Sa RN4220 lethal,ugtP null kill,Mtb hypoxia rep,Mtb hypoxia rep growth
CC1CN(C(=O)c2ccc(NS(=O)(=O)c3ccc(F)cc3)cc2)CC(C)O1 (stereo unspecified),-9,-10,6670,1.9,11,14,-1
COc1c(F)cc2[nH]c3c(c2c1F)CCNC3=O,-2,-2,3529,10,0,12,8
CCOC(=O)C(O)(c1ccc(NC(=O)NC)cc1)C(F)(F)F (stereo unspecified),nt,10,nt,5.7,8,4,2
Cn1c2ccccc2n2c(=O)c(=O)n(CC(=O)c3ccc(F)cc3)nc12,-9,-4,8716,-1.5,-9,-4,-3
CN(CC(=O)Nc1ccc(F)cc1)C(=O)C1Cc2ccccc2CN1S(C)(=O)=O (stereo unspecified),-9,nt,5376,2.8,5,-5,-3
Cc1cccc2cc(CN(Cc3ccc(F)cc3)C(=O)C(F)(F)F)c3nnnn3c12,-17,-6,3699,-0.6,-3,-1,1
Fc1ccc(C(c2nnnn2C2CCCC2)N(Cc2ccco2)CC2CCCO2)cc1 (stereo unspecified),-15,9,3427,4.7,5,12,9
Cc1cccc(C(=O)N2CCN(CCNC(=O)C(=O)Nc3ccc(F)cc3)CC2)c1,-4,-3,3095,nt,nt,nt,nt
CCS(=O)(=O)c1ccc2oc(SCC(=O)NCCc3ccc(F)cc3)nc2c1,-17,-11,3337,9.0,1,2,6

# Structures listed so far that contain a CF3 group, in the order listed:
SMILES,PrP UTR inh,BJeLR viability,Autofluor counter,Sa RN4220 lethal,ugtP null kill,Mtb hypoxia rep,Mtb hypoxia rep growth
CCOC(=O)C(O)(c1ccc(NC(=O)NC)cc1)C(F)(F)F (stereo unspecified),nt,10,nt,5.7,8,4,2
Cc1cccc2cc(CN(Cc3ccc(F)cc3)C(=O)C(F)(F)F)c3nnnn3c12,-17,-6,3699,-0.6,-3,-1,1

# Compound activity from PubChem BioAssay.
